Mtb growth: Confirmatory growth inhibition assay against Mycobacterium tuberculosis H37Rv, potency (AID 1949); most inactive calls were filed without a number and no value below 0 was filed; inhibition, % at 10 µg/mL; hits with a dose series show IC50 in µg/mL; 100,000 tested, 1.6% active;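 active means confirmed in a dose series; inconclusive means about 50% or more but not retested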;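 further: bacteria grown 7 days with compound before Alamar blue readout; 0% = untreated bacteria and 100% = reference antibiotic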
Numbers without * were called inactive; i = inactive; ? = inconclusive. The list is partial. The share of hits here may be higher or lower than overall.

Molecule	Mtb growth
CCOC(=O)c1cnc2ccccc2c1NCCc1ccc(OC)c(OC)c1	3%
NC(=O)c1ccc(N2CCCCC2)c(N2C(=O)CCC2=O)c1	i
Cc1cc(C)c(OCCOCCNCCN)c(Cl)c1	i
Cc1sc(NC(=O)CSc2nncn2C)nc1-c1ccccc1	1%
COc1ccc(F)cc1S(=O)(=O)NC(c1ccccc1)c1ccccc1	i
Cc1ccccc1C(=O)NC(C)c1nnc(SCC(=O)Nc2cc(Cl)cc(Cl)c2)n1C (centres undefined)	1%
Cc1ccc(NC(=O)Nc2ccc3c(c2)nc(C)n3C)cc1	i
S=C(Nc1ccccc1Oc1ccccc1)Nc1cccc(Cl)c1Cl	1%
CCn1c(SCC(=O)Nc2ccc(C(=O)O)cc2)nnc1-c1ccccc1C	i
CN1C2=C(C(=O)CCC2)C(c2ccc([N+](=O)[O-])cc2)C2=C1CCCC2=O	8%
Fc1ccc(N2CCN(Cc3ccco3)CC2)cc1	i
O=C(O)CC(C(=O)OCc1ccccc1)N1CCOCC1 (centres undefined)	i

Later entries.
Molecule	Mtb growth
O=C(NNC(=S)Nc1ccc(F)cc1F)c1ccco1	i
Cc1cccc(NC(=O)c2ccccc2NC(=O)C(C)(C)C)n1	i
CC(=O)N1CCN(CC(O)COc2ccc(OCc3ccccc3)cc2)CC1 (centres undefined)	i
NC(=O)c1cc(-c2ccc(Br)cc2)nc2ccccc12	24%
Cc1ccc(OCCCON2C(=O)CCC2=O)c(I)c1	3%
N/C(=N\OC(=O)Oc1ccccc1)c1ccccn1	i
COc1ccccc1C(=O)N1CCN=C1c1ccccc1	i
Cc1nc(SCC(=O)c2c[nH]c3ccccc23)n[nH]1	i
O=C(NCCCN1CCN(c2ccccc2[N+](=O)[O-])CC1)Nc1ccccc1F	3%
O=C(Cc1ccccc1Cl)N1CCOCC1	i
COC(=O)c1ccc(CSc2nnc(-c3ccncc3)o2)o1	i
CCCCc1[nH]nc2c1C(c1cc(Br)cs1)C(C#N)=C(N)O2 (centres undefined)	2%

Overlap with the part before: seven entries, then new ones.
Molecule	Mtb growth
N/C(=N\OC(=O)Oc1ccccc1)c1ccccn1	i
COc1ccccc1C(=O)N1CCN=C1c1ccccc1	i
Cc1nc(SCC(=O)c2c[nH]c3ccccc23)n[nH]1	i
O=C(NCCCN1CCN(c2ccccc2[N+](=O)[O-])CC1)Nc1ccccc1F	3%
O=C(Cc1ccccc1Cl)N1CCOCC1	i
COC(=O)c1ccc(CSc2nnc(-c3ccncc3)o2)o1	i
CCCCc1[nH]nc2c1C(c1cc(Br)cs1)C(C#N)=C(N)O2 (centres undefined)	2%
C=CCn1c(SCC(=O)Nc2ccccc2)nc2sc3c(c2c1=O)CCCC3	i
CCc1ccc(OCC(=O)Nc2ccc(S(=O)(=O)Nc3nc(C)cc(C)n3)cc2)cc1	i
COCCNc1nc2c(c(=O)n(C)c(=O)n2C)n1Cc1cccc(Br)c1	i
CC1=CC(C)(C)N2C(=O)C(=O)c3cc(O)cc1c32	2%
O=C(NNS(=O)(=O)c1ccc(F)cc1)Nc1ccc(Br)cc1	i
CC1(C)CC(=O)C=C(NCc2ccc3c(c2)OCO3)C1	i
COc1cc(C(=S)N2CCC(C(N)=O)CC2)ccc1O	i
CCN1CCN(c2ncnc3ccc(Br)cc23)CC1	i
CCOC(=O)c1ccc(Oc2ncnc(N)c2[N+](=O)[O-])cc1	i
COc1ccc(C(=O)NC(=S)Nc2ccc(Cl)c(C(=O)O)c2)cc1	i
O=C(c1ccc2ncsc2c1)N1CCN(c2nnnn2-c2ccccc2)CC1	i
CC(C)NC(=O)c1cccc(I)c1	1%

Continuation:
Molecule	Mtb growth
FC(F)(F)c1cccc(NC(=S)NCC2CCCO2)c1 (centres undefined)	i
Cc1cccc(Nc2nc(-c3ccncc3)cs2)n1	?
CCOC(=O)c1cc(-c2ccc(/C=C/[N+](=O)[O-])o2)ccc1Cl	i
CC(Oc1cccc(Cl)c1)C(=O)Nc1ccc(Cl)cc1F (centres undefined)	i
Cc1cccc(C)c1NC(=O)Cc1ccccc1	i
CCOC(=O)C1=C(C)NC(=O)NC1c1ccc(C)c([N+](=O)[O-])c1 (centres undefined)	0%
COc1ccc(CC(=O)NCCCNC(=O)Cc2ccc(OC)cc2)cc1	i
Cc1ccc(C(=O)Nc2ccc(N3CCCC3)cc2)c(C)c1	i
Cc1ccc(CN2CCN(C(=O)c3ccoc3C)CC2)cc1	i
CN(CC(=O)Nc1ccc(Br)cc1F)S(=O)(=O)c1ccccc1	i
CCCCNCCCOc1ccc(OCC)cc1	i
O=C(NCCC1=CCCCC1)C1CCCO1 (centres undefined)	i

Remaining list, next part:
Molecule	Mtb growth
CCc1cccc(NC(=O)c2ccco2)c1	i
COc1ccc(NC(=O)CSc2nnc(C)c(=O)[nH]2)cc1	i
O=c1cc(-c2ccc([N+](=O)[O-])cc2)nc2c(-c3cccc4ccccc34)c(Cc3ccccc3)[nH]n12	35%
CCC(Sc1nnc2c(n1)[nH]c1ccccc12)C(=O)Nc1ccccc1OC (centres undefined)	4%
OCc1cc(Cl)ccc1OCc1cccc2ccccc12	i
CC1CCN(c2c([N+](=O)[O-])nn(-c3ccc(Cl)cc3)[n+]2[O-])CC1	i
NC(=O)c1c(NC(=O)C2CC2c2ccccc2)sc2c1CCCCCC2 (centres undefined)	5%
Cc1cc(C(F)(F)F)nn1Cc1ccc(C(=O)O)o1	i
COc1ccc(C2CC(c3ccccc3)=NN2c2ccc(C(N)=O)cc2)cc1 (centres undefined)	3%
OC(COc1ccc2ccccc2c1Br)Cn1cnc(-c2ccccc2)c1 (centres undefined)	?
Cc1cccc(NC(=O)c2ccccc2OCc2ccccc2F)n1	?
O=C(Nc1ccccc1Oc1ccccc1)c1sc2ccccc2c1Cl	i

The results go on:
Molecule	Mtb growth
N#CC1=C(SCC(=O)Nc2ccc([N+](=O)[O-])cc2)NC(=O)CC1c1ccccc1F (centres undefined)	4%
COc1ccccc1-c1nc(SCc2ccccc2F)n[nH]1	3%
O=C1C2C3C=CC(C3)C2C(=O)N1CCCCN1C(=O)C2C3C=CC(C3)C2C1=O (centres undefined)	i
CCOC(=O)N1CCN(CC(O)COc2ccc(C(C)(C)C)cc2)CC1 (centres undefined)	i
Cc1ccc2nc(/C(C#N)=C\c3c[nH]c4ccc(Br)cc34)[nH]c2c1	0.62µg/mL*
Cc1ccc(-c2nc(N)n(S(=O)(=O)c3ccc(C)cc3)n2)cc1	3%
O=C(c1cccs1)c1cn(CC(=O)N2CCc3ccccc3C2)c2ccccc12	i
C=CCn1cnc2c1c(=O)n(Cc1ccc(Cl)cc1)c(=O)n2C	i
COc1ccccc1N1CCN(C2CCN(C(=O)COc3ccccc3)CC2)CC1	i
Cc1cc2oc(C(=O)Nc3sc4c(c3C(N)=O)CCCC4)c(C)c2cc1C	i
COCCNC(=S)NC(=O)c1ccc(Cl)cc1Cl	i
CC(=O)c1oc2ccccc2c1NC(=O)CN1CCCCC1	3%

Additional structures:
Molecule	Mtb growth
O=C(O)c1cc(S(=O)(=O)N2CCCC2)ccc1O	i
CCC(C)NC(=O)c1ccccc1-c1ccccc1C(=O)NC(C)CC (centres undefined)	i
COc1ccc([N+](=O)[O-])cc1NC(=O)C1(c2ccccc2)CCOCC1	4%
COCCCNC(=O)C(C)(C)Oc1ccc(Cl)cc1	i
CN1CCN(c2ccccc2NC(=O)C(c2ccccc2)c2ccccc2)CC1	i
CC(NC(=S)NCC1CCCO1)c1ccncc1 (centres undefined)	i
Cc1ccccc1C(=O)N1CCN(c2ccc(NC(=O)c3cccc([N+](=O)[O-])c3)cc2)CC1	i
COc1ccccc1N1CCN(C(=O)c2ccc(N(C)S(=O)(=O)c3ccccc3)cc2)CC1	14%
N#CC1(c2ccc(NC(=O)c3ccccc3F)cc2)CCCC1	0%
CC(=O)N/C(=C\c1ccccc1)C(=O)NC(Cc1ccccc1)C(=O)O (centres undefined)	i
COCCSc1ccccc1C(=O)NCc1cccnc1	i
CC(C)Oc1ccc(NC(=O)CCN2C(=O)c3ccccc3C2=O)cc1	i

Continuation:
Molecule	Mtb growth
CCOC(=O)C1=C(c2ccccc2)NC(=S)NC1c1ccc2c(c1)OCO2 (centres undefined)	i
Nc1nc2n(n1)C(c1cccc(Cl)c1)CC(c1ccc(Cl)cc1)N2 (centres undefined)	5%
CCc1c(C)c2ccc(OCC(=O)O)cc2oc1=O	i
COc1cc(CN2CCC(C(=O)N(CCc3ccccc3)Cc3ccccc3)CC2)cc(OC)c1OC	2%
COc1cccc(N2C(=O)CC(N3CCN(C4CC(=O)N(c5cccc(OC)c5)C4=O)CC3)C2=O)c1 (centres undefined)	i
O=C(N1CCCc2ccccc21)C(Cl)(Cl)Cl	4%
Cc1nc2ccc(NC(=S)NCc3ccccc3)cc2nc1C	i
CCOC(=O)c1ccc(NC(=O)CC(C)CC(=O)O)cc1 (centres undefined)	0%
OC(COc1c(F)cc(Br)cc1F)CN1CCN(c2ccccc2F)CC1 (centres undefined)	0%
COc1ccc(OC)c(NC(=O)Nc2ccc(F)cc2C)c1	2%
CN1CCN(c2ccc(C(=O)NC3CCCCC3)cc2[N+](=O)[O-])CC1	i
COc1ccccc1N1CCN(C(=O)COc2ccc(S(=O)(=O)NC(C)(C)C)cc2)CC1	i

Continuation.
Molecule	Mtb growth
Nc1nc(SCc2nnc(SCC(=O)NCc3cccnc3)n2-c2ccccc2)nc2sc3c(c12)CCC3	9%
CCn1c(CNC(=O)c2cccc(C)c2)nnc1SCC(=O)Nc1ccccc1C	2%
Cc1ccc(OCCNCCN)c(Br)c1	i
O=C(COc1nc2ccc(-c3cccnc3)nc2o1)c1ccccc1	9%
CCn1c(CC(=O)Nc2cccc(OC)c2)nnc1SCC(=O)Nc1ccc(Br)c(Cl)c1	i
COc1ccc(NC(=O)CCCN2C(=O)CCC2=O)cc1OC	i
CC(C)(C)N1CC(COc2ccccc2)OC1=O (centres undefined)	i
Cc1ccc(-c2nn(C)c(=O)c3ccccc23)cc1S(=O)(=O)N(C)C1CCCCC1	i
Cc1nc2ccc(C(=O)OCc3nnc(-c4ccccc4)o3)cc2nc1C	3µg/mL*
Cn1ccnc1SCC(=O)Nc1cccc(F)c1	i
COc1ccc(CNC(=O)CC#N)cc1	i
CCOC(=O)N1CCN(C(=O)Nc2cccc(Cl)c2)CC1	2%

Further results
Molecule	Mtb growth
O=C(c1ccc(Br)cc1)c1ccc(N2CCOCC2)c([N+](=O)[O-])c1	5%
Cn1c(=O)c2c(nc(Oc3ccc(F)cc3)n2Cc2ccc(Cl)cc2Cl)n(C)c1=O	1%
O=C(Nc1ccccc1N1CCOCC1)c1cccc(I)c1	i
COc1cc(NS(=O)(=O)c2cc(Br)ccc2OC)c(OC)cc1Cl	2%
COC(=O)C1=CN(C(C)C)C=C(C(=O)OC)C1c1cc(Cl)c(O)c(OC)c1	i
Cc1ccc(NC(=S)NCCO)cc1	i
COc1ccccc1NC(=O)CN(c1ccccc1Cl)S(=O)(=O)c1ccccc1	i
COC(=O)c1ccccc1-n1c(CCC(=O)O)ccc1-c1ccccc1	i
Cc1ccc(S(=O)(=O)N2CCC(C(=O)Nc3cccc(Cl)c3C)CC2)cc1	i
CN(C)c1ccc(C2C(C(=O)/C=C/c3ccccc3)=C(O)C(=O)N2CCCCCC(=O)O)cc1 (centres undefined)	i
CCNC(=S)Nc1ccc(Cl)cc1Cl	i
O=C(CSc1ccc(Cl)cc1)Nc1ccc(S(=O)(=O)N2CCOCC2)cc1	i

Further compounds follow:
Molecule	Mtb growth
O=C(OCc1ccc(Cl)cc1)c1cccc(Br)c1	i
Cc1cc(C)c(C)c(Oc2ncnc(N)c2[N+](=O)[O-])c1	2%
CCCCC(=O)c1ccc(OC(C)C)cc1	i
NC(=O)C1(N2CCCCC2)CCN(Cc2ccccc2)CC1	i
Cc1c(Cl)cccc1NC(=O)C(=O)NCC1CCCO1 (centres undefined)	i
CCOc1cc(CNc2ccc(N3CCOCC3)c(Cl)c2)cc(Br)c1OCC(=O)NC(C)(C)C	4%
Fc1cccc(CN2CCN(C(=S)NCCc3ccccc3)CC2)c1	i
N#Cc1cnc(SCC(=O)Nc2ccccc2F)nc1N	i
COc1cc(C)ccc1OCCn1c2ccccc2c2ccccc21	i
C=CCN(Cc1ccc(OC)c(OC)c1)C(=O)NC1CCCCC1	i
CN1CCN(C(=S)C(=O)NCc2ccco2)CC1	i
O=C(NC(=S)NC1CCCCC1)C1CCCCC1	20%

Following part:
Molecule	Mtb growth
Cc1ccc(-c2cc(C(=O)Nc3ccccc3[N+](=O)[O-])c3ccccc3n2)s1	i
CSc1ccccc1NC(=O)Cn1nc(C)c([N+](=O)[O-])c1C	1%
Cc1ccc(S(=O)(=O)N2CCN(c3nc(-c4ccc(F)cc4)cs3)CC2)cc1	i
O=C(Nc1ccc(Oc2ccccc2)cc1)C1CCN(C(=O)c2cccc(Cl)c2)CC1	45%
CC(=O)NS(=O)(=O)c1ccc(NC(=S)NC(=O)c2ccc(-c3cccc(Cl)c3Cl)o2)cc1	i
Cc1ccc(-c2[nH]c(-c3cc([N+](=O)[O-])ccc3O)nc2-c2ccccc2)cc1	5.6µg/mL*
Cc1cccc(OCC(=O)NC(=S)Nc2cccc3ccccc23)c1	i
O=C(CSc1nc2ccccc2[nH]1)Nc1cccc(Cl)c1Cl	21%
COc1ccc(-c2n[nH]c(C)c2Oc2ccc(C(C)C)cc2)c(O)c1	7%
COc1ccc2sc(N3C(=O)CC(Cc4ccccc4)C3=O)nc2c1 (centres undefined)	i

By substructure: the entries above containing a CF3 group.
Molecule	Mtb growth
FC(F)(F)c1cccc(NC(=S)NCC2CCCO2)c1 (centres undefined)	i
Cc1cc(C(F)(F)F)nn1Cc1ccc(C(=O)O)o1	i

Screening results from PubChem.
